# Vaccinia mCherry: vaccinia inhibition (mCherry reporter). Vaccinia virus mCherry reporter infection, fluorescence; about a quarter of the inactives have no number. Potency, µM (highest dose often 36.5 µM), without a hit: at the highest dose activity change, negative = inhibition, actives largely listed as inhibitors. 0.63% of 310,000 active. AID 720579; active = well fitted inhibition curve with a large enough effect; inconclusive = small, poorly fitted or top-dose-only effect; inactive = no such curve, though single readings can be large or run the other way; tested in A549 cells; note: nearly all actives have a fitted effect of over 35% in size; inactives centre near -10
# VACV Venus inh: vaccinia inhibition (Venus reporter); Vaccinia virus Venus reporter expression, fluorescence; Potency, µM (titrated, usually from 36.5 µM), without a hit: at the highest dose activity change, negative = inhibition, actives largely listed as inhibitors; 0.46% of 330,000 active; active means well fitted inhibition curve with a large enough effect; inconclusive means small, poorly fitted or top-dose-only effect; inactive means no such curve, though single readings can be large or run the other way; tested in A549 cells; note: nearly all actives have a fitted effect of over 30% in size; inactives centre near -10
# Active calls of the source: *; i = inactive; ? = inconclusive; / = no result given; [ ] = another dose, or the depositor's remark. % is set by controls: 0 for no effect and ±100 for the full control effect; potency is the fitted concentration of half-maximal effect. Rows were taken by chance; about 0.82% have a hit in one of these screens.
mol | Vaccinia mCherry | VACV Venus inh
CC(=O)C1=C(C)NC(SCC(N)=O)=C(C#N)C1c1cccnc1 (stereo not given) | -10% | -12%
Cc1ccc(CCNC(=O)C2CCC(CNc3c(N4CCCC4)c(=O)c3=O)CC2)cc1 (stereo not given) | -15% | -4%
O=C(c1ccccc1)c1ccc(OCC(O)CNCc2cccc(Cl)c2)cc1 (stereo not given) | -22% | -28%
O=C(Cn1cncc1-c1ccc([N+](=O)[O-])cc1)Nc1ccccc1F | -7% | 1%
Cc1nc2c(N)nn(C)c2nc1C | -9% | -14%
COc1ccccc1NS(=O)(=O)c1ccc2oc(SCc3ccc(F)cc3)nc2c1 | -25% | -19%
CCCC(C)C1C(C#N)=C(N)Oc2c1c(=O)oc1ccccc21 (stereo not given) | / | -9%
S=C(NCc1cccnc1)Nc1ccc(Cl)cc1Cl | i | -3%
COc1ccc(CNC(=O)CSc2ncc3c(n2)-c2ccc(Cl)cc2N(Cc2ccc(F)cc2)S3(=O)=O)cc1OC | -28% | -13%
O=C(CNC(=O)c1ccccc1F)N/N=C/c1cn[nH]c1-c1ccccc1 | -11% | 2%
O=C(CSc1nnnn1C1CCCC1)Nc1ccc2c(c1)OCO2 | i | -7%
COc1ccccc1N1CCN(C(=O)c2ccc(NC3=NC4CS(=O)(=O)CC4S3)cc2)CC1 (stereo not given) | i | -20%
COc1cccc(NC(=O)CN2CCN(c3ccccc3F)CC2)c1 | / | -10%
O=C(CSc1ncc2c(n1)-c1ccc(Cl)cc1N(Cc1ccccc1)S2(=O)=O)Nc1ccc(F)c(F)c1 | -7% | -12%
CS(=O)(=O)N1CCc2cc(S(=O)(=O)Nc3ccc4oc5c(c4c3)CCCC5)ccc21 | -6% | -29%
Cc1cc(C)nc(Sc2ccc(/C=C(\C#N)C(=O)Nc3ccccc3)o2)n1 | -7% | -21%
COc1ccc2c(CC(=O)OCC(=O)Nc3cc(C)c(C)cc3[N+](=O)[O-])coc2c1 | -8% | 0%
CC(C)c1ccc(NC(=O)c2ccccc2NC(=O)C2CCCCC2C(=O)O)cc1 (stereo not given) | i | -11%
CC(C)CC(=O)NC1CC(=O)N(c2ccc3c(c2)OCCO3)C1 (stereo not given) | 2% | -6%
CNC(=O)C[C@H]1C(=O)N(CCc2ccccc2)C[C@@H]1CSC | -4% | -9%
CC1(C(=O)N(Cc2ccccc2)Cc2ccccc2)CC1(Br)Br (stereo not given) | 7% | 0%
COC(=O)C1=C(C)NC(C)=C(C(=O)OC)C1C(=O)OCc1nnc(-c2ccccc2)o1 | -15% | -6%
COc1cc2c(cc1OC)CN(C(=O)CSC1=NCCS1)CC2 | -15% | -25%
COc1cccc(C(=O)Nc2ccc(C(=O)NCC(C)C)cc2)c1 | i | -18%
CSc1ncc(C(=O)O)c(C)n1 | -12% | -1%
COc1ccc(N2CCN(C(=O)c3cc4c(s3)-c3ccccc3S(=O)(=O)C4)CC2)cc1 | ? | 6%
O=C(c1cc(-c2ccccc2)nc2ccccc12)N1CCN(c2ccccc2O)CC1 | -16% | ?
COc1cc(OC)cc(-n2nnnc2SCC(=O)N2CCCC2)c1 | i | -1%
O=C(COc1ccc(Cl)cc1)Nc1nnc(C2=COCCO2)o1 | i | -10%
CCC(C)NC(=O)CSc1n[nH]c(-c2cc(Cl)ccc2OC)n1 (stereo not given) | -17% | -12%

mol | Vaccinia mCherry | VACV Venus inh
Cc1cc(-c2nnc(SCC(=O)Nc3ccccc3Cl)n2C)no1 | i | 4%
CCOC(=O)N1CCC(NC(=O)c2cnn(-c3cccc(C)c3)c2-n2cccc2)CC1 | -10% | -12%
O=C(NCCCN1CCN(c2ccccc2F)CC1)c1ccc2nc(CCc3ccccc3)oc2c1 | -12%[7.34 µM] | -15%[7.34 µM]
CCOC(=O)c1c(NC(NC(=O)C(C)C)C(Cl)(Cl)Cl)sc2c1CCC2 (stereo not given) | -15% | -15%
C[C@@]12CC[C@@H](c3cc4c(cc3C1)OCO4)N2c1ccccc1 | ? | -7%
CC1(C)CC(=O)C=C(OC(=O)c2ccc(Cl)cc2)C1 | -7% | 1%
Cn1cnnc1SCC(=O)Nc1ccc2nc(SCc3cccc4ccccc34)sc2c1 | -27% | -19%
COC(=O)c1cc(NC2c3ccccc3C(=O)N2CCN2CCOCC2)cc(C(=O)OC)c1 (stereo not given) | i | -6%
CC(NC(=O)CSc1nc2ccccc2c(=O)[nH]1)c1ccccc1 (stereo not given) | -3% | -1%
CCOC(=O)c1cc(=O)[nH]c2ccccc12 | -9% | -6%
COc1ccc(Sc2nc(-c3ccccc3)ncc2C(=O)O)cc1 | -9% | -16%
CCCCN(C(=O)c1cc(=O)[nH]c2ccccc12)c1c(N)n(CCCC)c(=O)[nH]c1=O | -14% | -4%
COC(=O)C[C@@H]1CC[C@H](NS(=O)(=O)c2cccc(F)c2)[C@@H](CO)O1 | -7% | -3%
CC(C)Cn1cnc2c(SCc3ccccc3)nc(N)nc21 | -13% | -12%
C=CCSc1nnc(NC(=O)c2cccc(S(=O)(=O)N(C)c3ccccc3)c2)s1 | -15% | -8%
CCCC(C)NS(=O)(=O)c1ccccc1 (stereo not given) | -13% | -5%
CCc1nc2cc([N+](=O)[O-])c([N+](=O)[O-])cc2[nH]1 | i | -15%
COc1ccc(CCNC(=O)COC(=O)CCC(=O)c2ccc(F)cc2)cc1 | -1% | -7%
Cc1cccc(OCC(=O)Nc2ccccc2C(=O)N2CCOCC2)c1 | -14% | -7%
Cc1nn(Cc2ccccc2Cl)c2sc(C(=O)NCCCn3ccnc3)cc12 | -14% | -14%
CCOC(=O)C1CCCN(Cc2sccc2C)C1 (stereo not given) | -20% | -6%
CCOC(=O)CC(=O)Nc1cc(Cl)ccc1O | / | -8%
OCC[C@@H]1C[C@@H](O)[C@H](O)[C@]2(OCc3ccccc32)O1 | i | 8%
CC1CCc2c(sc(NC(=O)CSc3nc(N)cc(=O)[nH]3)c2C(N)=O)C1 (stereo not given) | -21% | -9%
Nc1nc(-c2ccccc2)[nH]c(=O)c1N=O | ? | 13µM*
CCc1ccc(-n2c(O)c(/C=N/NC(=O)c3ccncc3)c(=O)[nH]c2=O)cc1 | -15% | -12%
O=C(COC(=O)COc1ccccc1)NCc1ccc2c(c1)OCO2 | -2% | -15%
O=[N+]([O-])c1ccc(-c2nnc(-c3ccccc3)c(NCCCO)n2)cc1 | -5% | -9%
Cc1ccc(-n2ncc(C(=O)N3CCC(c4ccccc4)C3)c2C2CCN(C(=O)OC(C)(C)C)CC2)cc1 (stereo not given) | -3% | -16%
O=C(CSc1nc(-c2cccs2)cc(C(F)(F)F)n1)Nc1ccccc1Cl | -14% | -9%

# Fields: Vaccinia mCherry, VACV Venus inh
COc1ccccc1NC(=O)CSc1nc2ccccc2c2nc(-c3ccccc3)nn12
  -6%, 4%
Fc1ccc(NC(=S)N2CCN(C/C=C/c3ccccc3)CC2)c(F)c1
  ?, ?
O=C(C1CCOCC1)N1CCCC(N2CCN(c3cccc(Cl)c3)CC2)C1 (stereo not given)
  i, -2%
Cc1c(N=CN2CCOCC2)c(=O)n(C)c(=O)n1C
  -3%, 0%
CCOC(=O)c1c(N)sc(C(=O)N2CCCC(C(N)=O)C2)c1C (stereo not given)
  -12%[1.46 µM], -11%
CCN(C(=O)CSc1nc(-c2ccc(C(C)C)cc2)no1)c1ccccc1
  -2%, 3%
CCn1c(SCC(=O)O)nnc1-c1cc2c(C)nn(-c3ccccc3)c2s1
  -15%, -1%
O=C(CCN1C(=O)/C(=C/c2cccs2)SC1=S)NNC(=O)c1cccc(O)c1
  -8%, 22%
COc1ccc(-c2nc(CS(=O)(=O)CC(=O)NCCc3ccc(C)cc3)c(C)o2)cc1
  -22%, -15%
C#CCN(C(=O)c1cc(COc2ccc(C)c(C)c2)on1)C1CCCCC1
  -9%, -9%

# No new results follow: seven of the compounds above.
# Fields: Vaccinia mCherry, VACV Venus inh
Cc1c(N=CN2CCOCC2)c(=O)n(C)c(=O)n1C
  -3%, 0%
CCOC(=O)c1c(N)sc(C(=O)N2CCCC(C(N)=O)C2)c1C (stereo not given)
  -12%[1.46 µM], -11%
CCN(C(=O)CSc1nc(-c2ccc(C(C)C)cc2)no1)c1ccccc1
  -2%, 3%
CCn1c(SCC(=O)O)nnc1-c1cc2c(C)nn(-c3ccccc3)c2s1
  -15%, -1%
O=C(CCN1C(=O)/C(=C/c2cccs2)SC1=S)NNC(=O)c1cccc(O)c1
  -8%, 22%
COc1ccc(-c2nc(CS(=O)(=O)CC(=O)NCCc3ccc(C)cc3)c(C)o2)cc1
  -22%, -15%
C#CCN(C(=O)c1cc(COc2ccc(C)c(C)c2)on1)C1CCCCC1
  -9%, -9%

# (listing goes on)
# Fields: Vaccinia mCherry, VACV Venus inh
O=C(C1=C[C@H](c2ccc(Br)cc2)C[C@H](OCc2ccc(CO)cc2)O1)N1CCN(Cc2ccc3c(c2)OCO3)CC1
  ?, ?
O=C(CN1CCOCC1)Nc1cccc(S(=O)(=O)N2CCCCCC2)c1
  i, -6%
FC(F)Oc1ccc(NC(=S)NC2CCSc3ccccc32)cc1 (stereo not given)
  -25%, ?
COc1ccccc1N1CCN(C(=O)C(=O)c2c(C)n(C)c3ccccc23)CC1
  -6%, -20%
Cn1c(=O)c2[nH]c(Nc3ccccc3)nc2n(C)c1=O
  -18%, -28%
COc1ccc(-c2ccc([C@H]3[C@H]4C=CC[C@@H](C)[C@@H]4C(=O)N3Cc3ccccc3)c(F)c2)cc1OC
  i, -22%
COc1ccc(-c2nnn(Cc3nc(N)nc(N4CCCCC4)n3)n2)cc1
  ?, ?
Cc1ccc(NC(=O)CN(c2ccc3c(c2)OCO3)S(=O)(=O)c2c(C)n[nH]c2C)cc1
  1%, -9%
C[C@H](CO)N1C[C@H](C)[C@@H](CN(C)S(=O)(=O)c2ccccc2)Oc2ccc(NC(=O)CCN3CCOCC3)cc2C1=O
  i, -11%
Cc1ccccc1C(=O)OC1OC(=O)C(Cl)=C1Nc1ccc(C(=O)O)cc1 (stereo not given)
  i, -8%

# Fields: Vaccinia mCherry, VACV Venus inh
Cc1cc(C)n2nc(SCC(=O)NC(=O)c3ccccc3)nc2n1
  i, 0%
COC(=O)c1ccnc(SCC(=O)c2ccccc2)c1
  ?, -11%
O=C(c1ccco1)N(CCCN1CCOCC1)c1nc(-c2ccc(Cl)cc2)cs1
  -21%, -9%
O=C(NN1C(=O)c2ccccc2NC1c1ccc([N+](=O)[O-])o1)c1ccccc1 (stereo not given)
  -25%, -27%
Cc1ccc(S(=O)(=O)NC(CCc2ccccc2)CC(=O)C(C)(C)C)cc1 (stereo not given)
  ?, ?
Cc1ccc(-n2c(=O)c3ccc(C(=O)NCc4ccccc4Cl)cc3n(CC(=O)Nc3cccc(F)c3)c2=O)cc1
  -18%, -29%
NC(=O)CN1N=C(c2cc(Cl)sc2Cl)CSC1=O
  -14%, -10%
O=C(Cc1ccccc1)Nc1nc2ccccc2s1
  -23%, -19%
CCN(CC)S(=O)(=O)c1cccc(NC(=O)COC(=O)C2=COCCO2)c1
  -17%, -4%
O=C1/C(=C/c2cccs2)SC(=S)N1C1CCS(=O)(=O)C1 (stereo not given)
  -8%, -5%

# Fields: Vaccinia mCherry, VACV Venus inh
Cc1cc(NC(=O)CSCC(=O)N(C)Cc2c(F)cccc2Cl)no1
  i, -17%
CCN1CCc2nc3sc(C(=O)c4ccc(F)cc4)c(N)c3cc2C1
  -10%, 96%[activator]
O=C(O)Cc1ccc2c(c1)N(S(=O)(=O)c1cccs1)CC(C(=O)O)O2 (stereo not given)
  -11%, -4%
COc1ccc(C(=O)N2CCCC(CCC(=O)NCc3ccc(F)c(F)c3)C2)cc1F (stereo not given)
  -12%, -5%
CCCCn1c(N)c(N(CCOC)C(=O)C2CCN(S(=O)(=O)c3ccc(C)cc3)CC2)c(=O)[nH]c1=O
  -10%, -10%
CCc1nc2ccc(C(=O)Nc3cccc(C(C)=O)c3)cc2nc1CC
  -7%, -14%
CCOC(=O)c1c(-c2ccc(Cl)cc2)cn2ccccc12
  /, 0%
O=C1c2ccccc2C(O)(Cc2ccccc2)N1c1ccc2c(c1)OCO2 (stereo not given)
  -3%, -5%
CCOC(=O)c1c(-c2ccccc2)csc1NC(=O)c1cc2ccccc2oc1=O
  -4%, -13%
NC(=O)c1c(NC(=O)COC(=O)c2ccc(S(=O)(=O)Nc3ccccc3)cc2)sc2c1CCCC2
  i, -14%

# Fields: Vaccinia mCherry, VACV Venus inh
C[C@H](O)[C@@H]1C(=O)N2CCc3c([nH]c4ccccc34)[C@@H]2C[C@@H]1N(C)C(=O)c1cc(Cl)cc(Cl)c1
  9%, -6%
Cc1ccccc1NS(=O)(=O)c1ccc(-c2ccc(=O)[nH]n2)o1
  -17%, -6%
CC(=O)NS(=O)(=O)c1ccc(NC(=O)c2ccccn2)cc1
  i, -13%
O=CN1CCN(C(=O)Cc2ccc([N+](=O)[O-])cc2)CC1
  -7%, -4%
Cc1noc(C)c1CS(=O)(=O)c1ccc([N+](=O)[O-])cc1
  -17%, -4%
CCOC(=O)C1CCN(C(=O)/C=C/c2ccccc2OC)CC1
  25%, 16%
CCOCCn1c(=O)c2c(nc3n2CCN3c2ccc(C)c(C)c2)n(C)c1=O
  -16%, -2%
O=C(COC(=O)CN1C(=O)C2CC=CCC2C1=O)Nc1cccc([N+](=O)[O-])c1 (stereo not given)
  -14%, -16%
O=C(CSc1nc2ccccc2n1CCc1ccccc1)NC1CC1
  i, 0%

# Source: PubChem BioAssay (National Center for Advancing Translational Sciences (NCATS))
